# Screening results: PubChem BioAssay, National Center for Advancing Translational Sciences (NCATS)
# CtBP-E1A blk: qHTS Assay for Inhibitors of the CtBP/E1A Interaction; activity change, % (test concentration not listed); hit rate 0.49% among 340,000; CtBP / adenovirus E1A interaction (AlphaScreen); AID 651724, 2012; AlphaScreen GST-E1A/His-CtBP binding, 1536-well; stronger effect = lower value; control for the full effect not named in the record; in the data active means activity change below about -65%; inconclusive means about -30% to -65%; inactive means above about -30%; also: % is scaled to controls: 0 for no effect and ±100 for the full control effect; compound concentration not given in the record
#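 AlphaScreen with 125 nM GST-E1A and 125 nM His-CtBP (5X stocks) in Tris pH 8.0, 300 mM NaCl, BSA, Tween 20, TCEP. Compounds preincubated 2 h at 37 deg C, then glutathione donor/nickel acceptor beads added for 1 h at 37 deg C in dark.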
# TRPV1 potentiator: HTS Assay for Compounds that Act as Potentiators of the Vanilloid Receptor 1; Transient receptor potential cation channel subfamily V member 1 (Homo sapiens), Q8NER1; TRPV1-expressing cells, Fluo-8 calcium influx, capsaicin EC20 potentiation; host cell line not named in the record; control for the full effect not named in the record; potentiation, % at 8.33 µM; hit rate 0.02% among 320,000; active means potentiation above 80%; inconclusive means 30% to 80%; inactive means below 30%; also: 0% is about no effect
# Target sequence (Q8NER1 whole entry, looked up): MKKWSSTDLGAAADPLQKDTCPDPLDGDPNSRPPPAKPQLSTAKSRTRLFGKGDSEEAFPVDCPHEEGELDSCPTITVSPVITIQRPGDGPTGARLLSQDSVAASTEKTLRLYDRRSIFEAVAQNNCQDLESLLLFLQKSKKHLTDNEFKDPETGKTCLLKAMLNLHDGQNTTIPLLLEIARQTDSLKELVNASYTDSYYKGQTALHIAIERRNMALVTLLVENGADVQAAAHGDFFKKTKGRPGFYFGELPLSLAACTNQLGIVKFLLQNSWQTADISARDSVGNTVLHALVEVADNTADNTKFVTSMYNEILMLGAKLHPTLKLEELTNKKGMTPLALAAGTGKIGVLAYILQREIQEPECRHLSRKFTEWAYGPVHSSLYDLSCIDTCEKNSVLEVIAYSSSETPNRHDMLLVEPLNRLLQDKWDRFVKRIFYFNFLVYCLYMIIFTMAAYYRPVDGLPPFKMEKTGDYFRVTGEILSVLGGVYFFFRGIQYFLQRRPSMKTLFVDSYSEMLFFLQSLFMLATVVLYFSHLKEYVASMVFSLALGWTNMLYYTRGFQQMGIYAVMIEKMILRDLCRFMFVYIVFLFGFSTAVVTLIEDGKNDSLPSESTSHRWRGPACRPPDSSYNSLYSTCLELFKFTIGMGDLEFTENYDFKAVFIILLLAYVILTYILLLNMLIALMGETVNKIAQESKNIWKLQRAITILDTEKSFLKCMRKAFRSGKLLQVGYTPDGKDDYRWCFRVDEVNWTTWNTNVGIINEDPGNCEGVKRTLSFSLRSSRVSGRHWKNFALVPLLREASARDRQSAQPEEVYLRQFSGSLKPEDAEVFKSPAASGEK
#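 Fluo-8 calcium influx in TRPV1-expressing cells, kinetic read (ex 480/em 520 nm). Compound added and read 3 min for agonist activity, followed by capsaicin at EC20 final and 2 min further read for enhancement.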
# D2 PAM: Beta-Arrestin HTS for Positive Allosteric Modulators of the Human D2 Dopamine Receptor: Potentiators; DiscoveRx D2 beta-arrestin cells, luminescence, 90 min; 100% = 57 uM dopamine signal; potentiation, % (concentration not given with the values); D(2) dopamine receptor (Homo sapiens), P14416; hit rate 0.23% among 360,000; active = potentiation of 50% or more; inconclusive = 30% to 50%; inactive = 30% or less;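 also: compound concentration not given in the record; tested on top of an EC20 dose of dopamine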
#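 PathHunter beta-arrestin assay in DiscoveRx D2 cells. Compounds were added with an EC20 of dopamine (50 nM final) for 90 min at 37 deg C. Luminescence was read 1 h after detection reagent, with 57 uM dopamine as the EC100 control.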
# Six1-Eya2 inh: qHTS Assay for Inhibitors of the Six1/Eya2 Interaction; AlphaScreen GST-Six1/His-Eya2 binding, biochemical; stronger effect = lower value; control for the full effect not named in the record; activity change, % (no concentration beside the values); hit rate 0.56% among 360,000; AID 651725, 2012; in the data active = activity change below about -65%; inconclusive = about -30% to -65%; inactive = above about -30%; also: % is scaled to controls: 0 for no effect and ±100 for the full control effect; compound concentration not given in the record
#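 Homogeneous AlphaScreen proximity assay pairing GST-Six1 with His-tagged Eya2 (added as 5X mix: 250 nM and 500 nM) in 50 mM Tris pH 8.0, 300 mM NaCl, 1 mM TCEP. Glutathione donor and nickel acceptor beads; 1 h, 37 °C, dark.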
# D2 agonist: Beta-Arrestin HTS for Positive Allosteric Modulators of the Human D2 Dopamine Receptor: Agonists | AID 624465, 2012 | DiscoveRx PathHunter D2 beta-arrestin, luminescence, 90 min; 100% = 57 uM dopamine signal | activation, % (test concentration not listed) | D(2) dopamine receptor (Homo sapiens), P14416 | hit rate 0.084% among 360,000; in the data active = activation above about 40%; inconclusive = about 15% to 40%; inactive = below about 15%; also: compound concentration not given in the record; the text of the record calls up to 30% inactive
#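 Agonist mode: compounds alone added to overnight-plated D2 PathHunter cells for 90 min at 37 C, with 57 uM final dopamine (EC100) defining full response. Beta-arrestin recruitment detected by chemiluminescent reagent, read after 1 h at ambient temperature.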
# Sfp inh: qHTS Assay for Inhibitors of Bacillus subtilis Sfp phosphopantetheinyl transferase (PPTase); 4'-phosphopantetheinyl transferase ffp (Bacillus subtilis), Q9F4F7; Biochemical Sfp PPTase activity, qHTS; Potency, µM, for inactives: max response, negative = inhibition, hits mostly inhibitors; hit rate 3.5% among 310,000; AID 1490, 2009; active = well fitted inhibition curve with a large enough effect; inconclusive = small, poorly fitted or top-dose-only effect, or another doubt; inactive = no such curve, though single readings can be large or run the other way;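 also: the enzyme is Sfp with the accession as filed and its product quenches rhodamine fluorescence; potency is read from the fitted curve at half-maximal effect; 0% = enzyme reaction without inhibitor and -100% = no enzyme wells; top concentration of the series not given in the record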
#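 Compounds were incubated with enzyme (final 15 nM) for 15 min at room temperature before substrate addition started the reaction. Fluorescence at 525 nm excitation, 598 nm emission was recorded immediately and after 30 minutes.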
# PINK1 expr mod: A Quantitative High throughput Screen to Identify Chemical Modulators of PINK1 Expression. AID 624263, 2012. Potency, µM (series often up to 76.6 µM), without a hit: top-dose activation (PINK1 increase), actives largely listed as activators. hit rate 0.2% among 410,000. PINK1 immunofluorescence, high-content cytometry, 24 h; active = well fitted activation curve with a large enough effect; inconclusive = small, poorly fitted or top-dose-only effect; inactive = flat fitted curve, though single readings scatter; cell line not stated here;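 also: potency is read from the fitted curve at half-maximal effect; % of control where 0% means no effect; nearly all actives have a fitted effect of over 65% in size; a mitochondrial uncoupler was the plate control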
#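 Decision-based qHTS: stable cells, 24 h exposure to five compound concentrations, CCCP as control. Fixed cells stained for PINK1 plus nuclear, mitochondrial and cell markers, cytometer read.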
# * = called active by the depositor; ? = inconclusive; nt = no result given; & = joins results of further samples; [ ] = remark or other dose.
SMILES,CtBP-E1A blk,TRPV1 potentiator,D2 PAM,Six1-Eya2 inh,D2 agonist,Sfp inh,PINK1 expr mod
COc1ccc(CNC(=O)C2CCC(CNc3c(N4CCC(C)CC4)c(=O)c3=O)CC2)cc1 (centres undefined),-2,-9,-1,0,-0.2,8%,2.6%
CN(C)C(=S)c1ccc(N(C)C)cc1,2,-3,-9,1,-2.9,16µM*,1.3%
O=C(Nc1ccc2ccccc2c1)Nc1ccc2snnc2c1,-5,-4,22,-6,2.6,?,45µM*
CCn1cc(CNC(=O)CCc2nnc(CCC3CCCCC3)o2)cn1,nt,2,-9,-3,1.9,15%,-0.7%
Cc1nn(-c2ccc(N3CCOCC3)nn2)c(C)c1CCC(=O)NCc1ccccc1,5,-2,5,-2,-3.3,12%,-1.0%&1.7%
COc1ccc(Cl)cc1C(=O)NC1=NCCS1,8,-37,-13,4,-4.1,-3%,1.3%
C=CCNC(=O)c1snnc1-c1ccccc1,-4,5,12,10,-1.1,-13%,0.5%
c1ccc(-c2cnc(CSc3nnc4ccccn34)o2)cc1,-1,5,-4,-3,-4.9,-5%,-2.5%
CC1(C)N=C(SCC(=O)Nc2ccc(Cl)cc2Cl)C(c2ccccc2)=N1,4,20,-15,-3,-3.8,2%,0.4%
Cc1c(C(=O)Nc2ccc(Cl)cn2)oc2ccccc12,-2,-5,0,0,-2.5,15%,3.1%
N#Cc1c(-n2ccnc2)cccc1-n1ccnc1,10,5,-1,6,2.1,11%,-2.8%
Cn1cccc1/C=C(/C#N)c1ccc(F)cc1,?,-5,-34,-5,-4.4,4%,2.4%
CCOc1ccc2c(c1)c(N=NC(=N)N)c(O)n2C,?,-30,4,-80*,-0.2,0%,5.1%
Cc1cc(OC(C)C(=O)NC2CC(C)(C)NC(C)(C)C2)c2c(C)c(C)c(=O)oc2c1 (centres undefined),1,nt,-19,6,-3.5,nt,-0.2%
CC1CCCN(C(=O)C(C)Nc2cc(Cl)ccc2N2CCOCC2)C1 (centres undefined),-7,-7,-2,-16,3.8,2%,0.3%
CC(C(=O)NCc1ccco1)n1ccc2cc(S(=O)(=O)N3CCCCC3)ccc21 (centres undefined),-2,2,-3,-2,1.8,14%,0.6%
CC(=O)OCCSc1c(-c2ccccc2)c2cc(Cl)ccc2[nH]c1=O,2,10,-11,1,2.9,-3%,-0.1%
CC(C)(C)C(=O)c1sc2nc(-c3cccs3)cc(C(F)(F)F)c2c1N,4,19,-10,25,-4.7,22µM*,10%
N#C/C(=C(/O)c1ccc(F)cc1)c1nc2ccccc2s1,11,12,-12,4,0.3,-3%,16µM*
COc1cccc(C(=O)N2CCN(CCCc3ccccc3)CC2)c1OC,-1,4,-6,-1,3.0,?,-2.6%[38.3 µM]
CCC(NC(=S)NCc1ccc(F)cc1)c1ccccc1 (centres undefined),-12,-8,-9,-4,-7.9,18%,16%
Cc1ccc(/C=N/NC(=S)NC2CCCCC2)o1,-23,21,5,-1,5.2,20%,9.6%
N#Cc1cc(-c2ccccc2)nnc1Sc1ccc(Cl)cc1,21,-4,7,4,1.2,21%,13%
Cc1ccc(OCc2ccc(C(=O)Nc3nc4ccccc4n3C)o2)c([N+](=O)[O-])c1,-9,?,-13,4,2.1,16%,16%
O=C(O)c1cc2nc(-c3ccccc3)cc(C(F)(F)F)n2n1,-11,3,-2,-21,0.3,1%,-2.0%
O=C(CN1C(=O)/C(=C\c2cccc(Br)c2)Oc2ccccc21)NCCCN1CCOCC1,-8,-2,-1,3,-4.5,-24%,-2.4%
O=C(NCCCn1ccnc1)C(=O)NCC1OCCN1S(=O)(=O)c1ccc(Br)cc1 (centres undefined),10,-14,8,0,6.9,18%,0.2%
Cc1cccc(C(O)c2ncc(-c3ccc(Cl)cc3)[nH]2)c1C (centres undefined),-10,nt,-16,-11,-4.0,nt,0.7%
CC1(C)OC2OC(COC(=O)c3ccc([N+](=O)[O-])cc3)C3OC(C)(C)OC3C2O1 (centres undefined),-3,-14,-9,-11,-2.0,-3%,-1.1%
CCCCC(=O)Nc1nnc(SCC(=O)NC2CC2)s1,9,-1,1,-1,-1.7,10%,0.4%
CCOC(=O)N1C=CC=C[C@@H]2[C@@H](N3C(=O)c4ccccc4C3=O)C(=O)N21,4,-2,-6,4,-2.6,-9%,0.2%
Cc1ccc(C)c(C(=O)COC(=O)CN2C(=O)C3C4C=CC(C4)C3C2=O)c1 (centres undefined),-4,13,-7,0,-0.9,3%,-0.1%
C[C@@H](OC(=O)c1[nH]cnc1C(=O)N1CCc2ccccc2C1)c1ccccc1,-4,nt,-8,-1,-1.2,nt,2.1%
CC(C)CC1C(=O)N(Cc2cn(CCC3OCCO3)nn2)CCS(=O)(=O)N1Cc1ccc(-c2cccc(CO)c2)cc1 (centres undefined),0,nt,0,-6,-5.0,nt,0.6%
COc1ccc(NS(=O)(=O)c2cc(NC(=O)c3cnc(C)cn3)ccc2N2CCCC2)cc1,-16,-26,18,-9,5.0,3%,5.6%
C#CCOCCOCCOCCNc1nc(N2CCN(C(=O)[C@H]([C@@H](C)CC)n3cc(CCCCN)nn3)CC2)nc(N2CCN(C(=O)[C@H](CCCCN)n3cc(CCCC)nn3)CC2)n1,0,15,-11,3,-0.7,nt,2.3%
COCCNc1ccc(S(=O)(=O)N2CCCC2)cn1,5,-5,-2,-1,0.6,?,-0.1%
Cc1ccc(C(=O)CCS(=O)(=O)c2ccc(F)cc2)cc1,7,-7,-9,-1,-2.3,2%,0.6%
Cc1cccc(C)c1C(O)c1ncc(-c2ccccc2C(F)(F)F)[nH]1 (centres undefined),1,nt,-2,-6,-1.5,nt,4.5%
Cc1cc(Br)ccc1S(=O)(=O)n1ccnc1C,14,6,-3,1,0.0,22%,-1.4%
COc1ccc(C2C(C(=O)c3ccccc3)=C(C)Nc3nc4ccccc4n32)cc1OC (centres undefined),-4,22,5,5,-5.5,10%,-0.4%
Cc1snc(SCc2ccc(F)cc2)c1C#N,33,-18,-4,19,2.3,-5%,-0.9%
Cc1cc(C)nc(SCC(=O)Nc2cccc(S(=O)(=O)N(C)C)c2)n1,-9,10,-11,7,2.5,15%,3.8%
O=C(CSc1ncnc2c1oc1ccccc12)Nc1ccccc1F,5,nt,-5,-5,0.0,-1%,3.9%
O=C(Cc1cnc2ncnn2c1)N1CCc2c([nH]c3ccccc23)C1c1ccccc1F (centres undefined),2,-12,-8,-5,1.1,-3%,-0.5%
Cn1nc(C(=O)Nc2ccccc2N2CCCC2)c2ccccc2c1=O,?,0,6,-23,15,-18%,1.0%
O=C(Nc1cccnc1)C(Cc1ccccc1)n1cccc1 (centres undefined),0,nt,-7,-15,7.5,-13%,1.3%
CCn1c(SC(C)C)nnc1-c1c[nH]c2ccccc12,2,0,-2,-5,-4.3,5%,0.5%

# Sfp inh: what is marked active above.
Compound | CtBP-E1A blk | D2 PAM | Six1-Eya2 inh | D2 agonist | Sfp inh | PINK1 expr mod
CN(C)C(=S)c1ccc(N(C)C)cc1 | 2 | -9 | 1 | -2.9 | 16µM* | 1.3%
CC(C)(C)C(=O)c1sc2nc(-c3cccs3)cc(C(F)(F)F)c2c1N | 4 | -10 | 25 | -4.7 | 22µM* | 10%

# (next part)
SMILES,CtBP-E1A blk,TRPV1 potentiator,D2 PAM,Six1-Eya2 inh,D2 agonist,Sfp inh,PINK1 expr mod
COc1ccccc1/C=C\C(=O)NCC(=O)N/N=C/c1cccc(OC)c1O,-89*,-3,-35,?,-0.2,?,1.3%
O=c1c2ccccc2c(=O)n(-c2ccccc2)n1-c1ccccc1,0,nt,-6,3,-2.7,nt,-0.4%
Cc1ccccc1CN(C)CC(=O)Nc1cccc(S(=O)(=O)N(C)c2ccccc2)c1,10,-6,5,20,-3.3,12%,3.9%
O=C(Nc1ccccc1-c1nc2ccccc2s1)c1ccc(Br)o1,12,7,-8,6,-2.1,2%,6.8%[38.3 µM]
Cc1cc(C)nc(Nc2ncc(O)n2-c2ccc(C)c(C)c2)n1,-4,5,-4,4,-1.8,11%,-1.0%[38.3 µM]
COc1ccc(S(=O)(=O)NCC(=O)Nc2ccc3c(c2)OCCO3)cc1OC,9,-3,-3,2,0.1,1%,-0.3%
CC(C)N1C(=O)CC2(CC[N+](C)(CCOC(=O)C(c3ccccc3)c3ccccc3)CC2)C1=O (centres undefined),6,-12,-17,10,1.6,?,0.4%
CCN1C(=O)CCC(C(=O)O)C1c1ccc(OC)cc1 (centres undefined),30,16,-7,28,-2.2,17%,0.2%
c1ccc2c(c1)CCCc1cc(NCCN3CCOCC3)nnc1-2,5,2,-18,-4,-7.6,0%,-0.5%
Cc1ccc(NC(=O)COc2ccc(/C=C3/SC(=Nc4ccccc4)N(Cc4cccnc4)C3=O)cc2)cc1,3,-7,-2,-3,-1.5,-23%,2.8%
CCC(C)Sc1ccc([C@@H]2[C@@H]3C(=O)N(CC)C(=O)[C@@H]3[C@]3(C(=O)OC)CCCCN23)cc1 (some centres undefined),-6,nt,-2,3,-0.5,nt,19%
CCOC(=O)c1c(C)[nH]c(C)c1C(=O)COC(=O)COc1ccc(Cl)c(C)c1,1,2,-1,-18,-0.8,nt,2.1%
CCS(=O)(=O)N1CCN(C(=O)CCC2CCCC2)CC1,6,-20,1,12,1.0,8%,-0.4%
CCO[C@H]1OC(C(=O)NC2CC2)=C[C@@H](c2ccc(C(F)(F)F)cc2)[C@@H]1CCCO,4,-12,15,2,5.9,3%,0.3%
C/C(=N\NS(=O)(=O)c1ccc(C)cc1)c1cc2ccccc2oc1=O,7,1,1,-10,-1.3,8%,1.4%
Cc1ccc(-c2nc3cc(C)c(Br)c(C)n3c2Cc2cccc(Cl)c2)cc1,-3,nt,nt,6,nt,nt,-0.8%
